# Compound activity (PubChem BioAssay)
# Menin MLL FP FL – displaces fluorescein MLL peptide from human menin; Fluorescence polarization, fluorescein-MLL peptide displacement from menin; FP activity change, % at 61.4 µM; 290,000 tested, under 10 active; inconclusive = falling polarisation curve, or a change in total fluorescence; inactive = total fluorescence flat and polarisation flat or rising; no compound was filed as active; the % refers to the polarisation; negative = inhibition;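 note: % of control where 0% means no effect; inhibitors lower the polarisation; unlabelled MLL peptide was the positive control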
# ClpP mod – qHTS Assay for Activators of ClpP; purified B. subtilis ClpP, FRET peptide cleavage, 20 min; Potency, µM (top dose mostly 57.5 µM), inactives show top-dose activity change, negative = active; AID 651965, 2013; actives 1.9% (n = 340,000); active = well fitted falling curve with a large enough effect; inconclusive = small, poorly fitted or top-dose-only effect; inactive = no such curve, though single readings can be large or run the other way; note: potency is the fitted concentration of half-maximal effect; the source files actives as falling curves though it sought activators and does not explain the sign; nearly all actives have a fitted effect of over 65% in size; many hits overshoot -100%
# Target sequence (P80244 whole entry, looked up): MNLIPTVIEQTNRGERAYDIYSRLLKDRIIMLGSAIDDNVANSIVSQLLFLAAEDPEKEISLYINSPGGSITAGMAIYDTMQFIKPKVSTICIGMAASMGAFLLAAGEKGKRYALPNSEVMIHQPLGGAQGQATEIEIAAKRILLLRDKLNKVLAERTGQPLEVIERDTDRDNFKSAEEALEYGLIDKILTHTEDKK
#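 FRET quenching reversal measured ClpP activation: 10 microg/mL B. subtilis ClpP at pH 8 with the FRET-FV decapeptide, read at 430 nm after 320 nm excitation. The 20-min minus 0-min signal was scaled between DMSO/no-enzyme wells and ADEP (5.8 microM final).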
# TRPML1 blocker – inhibitors of human TRPML1 channel; Q9GZU1; TRPML1-inducible cells, Ca2+ dye fluorescence, FDSS; active compounds read low; inhibition of EC80 agonist-evoked calcium signal; activity change, negative = inhibition, % (test concentration not listed); actives 0.02% (n = 390,000); AID 624415; in the data active means activity change below about -50%; inconclusive means about -30% to -50%; inactive means above about -30%;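 note: stimulus is agonist 54-4 at its EC80 concentration; % is set by controls: 0 for no effect and ±100 for the full control effect; compound concentration not given in the record; the text of the record puts the active cut at -80%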
# Target sequence (Q9GZU1 whole entry, looked up): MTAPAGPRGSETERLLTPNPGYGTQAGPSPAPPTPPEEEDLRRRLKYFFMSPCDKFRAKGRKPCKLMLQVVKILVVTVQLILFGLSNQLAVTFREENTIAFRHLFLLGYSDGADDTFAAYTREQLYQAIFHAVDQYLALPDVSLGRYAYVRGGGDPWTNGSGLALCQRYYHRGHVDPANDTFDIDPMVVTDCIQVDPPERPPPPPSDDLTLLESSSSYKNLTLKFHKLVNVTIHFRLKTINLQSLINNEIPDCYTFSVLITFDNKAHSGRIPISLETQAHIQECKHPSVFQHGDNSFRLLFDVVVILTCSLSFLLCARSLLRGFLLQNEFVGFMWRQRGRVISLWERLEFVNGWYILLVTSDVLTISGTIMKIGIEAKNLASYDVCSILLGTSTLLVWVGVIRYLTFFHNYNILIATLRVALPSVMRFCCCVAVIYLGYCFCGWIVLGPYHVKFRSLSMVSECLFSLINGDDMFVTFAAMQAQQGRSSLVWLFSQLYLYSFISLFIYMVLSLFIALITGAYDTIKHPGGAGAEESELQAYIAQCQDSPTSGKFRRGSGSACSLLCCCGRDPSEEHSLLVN
#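 Tet-induced TRPML1-DL cells loaded with Ca8 no-wash calcium dye were read kinetically on FDSS. Compound addition was followed by EC80 agonist 54-4 (4 uM final); inhibition was read over 110 s.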
# TRPV1 PAM – enhances activation of the human vanilloid receptor TRPV1. AID 540277. TRPV1-expressing cells, Fluo-8 calcium influx, capsaicin EC20 potentiation; host cell line not named in the record; control for the full effect not named in the record. actives 0.02% (n = 320,000). Q8NER1. potentiation, % at 8.33 µM; active means potentiation above 80%; inconclusive means 30% to 80%; inactive means below 30%; note: 0% is about no effect
#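 Fluo-8 calcium influx in TRPV1-expressing cells, kinetic read (ex 480/em 520 nm). Compound added and read 3 min for agonist activity, followed by capsaicin at EC20 final and 2 min further read for enhancement.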
# gsp antag – antagonizes gsp, the McCune-Albright syndrome mutation; gsp-mutant cells, cAMP HTRF, 30 min; control for the full effect not named in the record; Potency, µM (series often up to 76.9 µM), inactives show at the highest dose activity change, negative = inhibition, usual class: inhibitors; actives 0.4% (n = 340,000); active = falling curve of any shape with a large fitted effect; inconclusive = falling curve, mostly with a smaller effect; inactive = flat or rising curve; cell line not stated here;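 note: intracellular cAMP measured with PDE inhibitor Ro 20-1724 present during compound exposure; potency is the fitted concentration of half-maximal effect; % is set by controls: 0 for no effect and ±100 for the full control effect; nearly all actives have a fitted effect of over 65% in size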
#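 Cells, 2000/well, grown 16–24 h in DMEM 10% FBS with 0.5 mg/ml G418, then compounds plus […] (300 uM addition stock), 30 min at 37C. cAMP read by HTRF (cAMP-d2 and anti-cAMP antibody-K in lysis buffer) after 30 min RT.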
# gsp ag – gsp mutant agonism; AID 624287; actives 0.13% (n = 340,000); Potency, µM (titrated, usually from 76.9 µM), for inactives: top-dose activation (cAMP increase), actives largely listed as activators; gsp mutant cells, cAMP HTRF, 30 min; control for the full effect not named in the record; active = well fitted activation curve with a large enough effect; inconclusive = small, poorly fitted or top-dose-only effect, or another doubt; inactive = no such curve, though single readings can be large or run the other way; cell line not stated here;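 note: phosphodiesterase inhibitor Ro 20-1724 added with compounds to block cAMP breakdown; potency is the fitted concentration of half-maximal effect; nearly all actives have a fitted effect of over 60% in size; about a fifth of the inactives were tested at one dose only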
#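 Cells stably selected in G418 were plated at 2000/well, grown 16-24 hr, then given compounds in DMSO with the PDE inhibitor […] (300 uM solution added) for 30 min at 37C; cAMP was read by HTRF.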
# Sfp PPTase inh – blocks B. subtilis Sfp PPTase activity; Potency, µM, for inactives: max response, negative = inhibition, hits mostly inhibitors; actives 3.5% (n = 310,000); Q9F4F7; Biochemical Sfp PPTase activity, qHTS; active = well fitted inhibition curve with a large enough effect; inconclusive = small, poorly fitted or top-dose-only effect, or another doubt; inactive = no such curve, though single readings can be large or run the other way;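 note: the enzyme is Sfp with the accession as filed and its product quenches rhodamine fluorescence; potency is the fitted concentration of half-maximal effect; 0% = enzyme reaction without inhibitor and -100% = no enzyme wells; top concentration of the series not given in the record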
#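 Sfp 15 nM + cpd, 15 min RT; start w/ rhodamine-CoA 5 uM, BHQ-2-YbbR 12.5 uM (final); 50 mM Hepes pH 7.6, 10 mM MgCl2, 0.01% NP-40, 0.01% BSA; read 525/598 nm at 0 and 30 min.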
# Starred values were filed as active, the others as inactive; u = inconclusive; x = no result given; & = joins results of further samples; [ ] = another dose, or the depositor's remark.
1. CCCCCCC(C)n1[nH]c(=O)c2c(C)cc(=O)[nH]c21 (centres undefined)
2. Cc1ccc(-c2nnc3n2CCCCC3)cc1
3. O=C(COc1ccccc1C(=O)NCC1CCCO1)Nc1ccc(Cl)cc1Cl (centres undefined)
4. N#C/C(=C\c1cccnc1)C(=O)Nc1ccc(O)cc1F
5. Cc1cccc(/C=N/c2sc3c(c2C(=O)OC(C)(C)C)CCN(C)C3)c1O
6. O=C1CC(SCc2nc3ccccc3[nH]2)C(=O)N1c1cccc(F)c1 (centres undefined)
7. S=C(NCc1ccccc1)NC1CCCc2ccccc21 (centres undefined)
8. COc1ccc(N2CCN(CC(=O)Nc3cccc(S(=O)(=O)N4CCOCC4)c3)CC2)cc1
Assay by compound	1	2	3	4	5	6	7	8
Menin MLL FP FL	1.8	-0.3	-0.9	-0.1	-0.9	11	5.7	1.9
ClpP mod	0.6%	1.6%	0.5%	x	-7.9%	u	x	-2.8%
TRPML1 blocker	80	16	0	-4	-11	18	-9	-2
TRPV1 PAM	0	-10	6	8	-3	-3	-5	4
gsp antag	12%	4%	-4%	9%	0%	5%	-6%	0%
gsp ag	-20%	22%	9%[15.4 µM]	20%	-74%[inhibitor]	-34%[inhibitor]	14%[15.4 µM]	-10%
Sfp PPTase inh	-32%	2%	13%	13%	0%	u	15%	-9%

# At a glance, six of the compounds above:
3. O=C(COc1ccccc1C(=O)NCC1CCCO1)Nc1ccc(Cl)cc1Cl (centres undefined)
4. N#C/C(=C\c1cccnc1)C(=O)Nc1ccc(O)cc1F
5. Cc1cccc(/C=N/c2sc3c(c2C(=O)OC(C)(C)C)CCN(C)C3)c1O
6. O=C1CC(SCc2nc3ccccc3[nH]2)C(=O)N1c1cccc(F)c1 (centres undefined)
7. S=C(NCc1ccccc1)NC1CCCc2ccccc21 (centres undefined)
8. COc1ccc(N2CCN(CC(=O)Nc3cccc(S(=O)(=O)N4CCOCC4)c3)CC2)cc1
Assay by compound	3	4	5	6	7	8
Menin MLL FP FL	-0.9	-0.1	-0.9	11	5.7	1.9
ClpP mod	0.5%	x	-7.9%	u	x	-2.8%
TRPML1 blocker	0	-4	-11	18	-9	-2
TRPV1 PAM	6	8	-3	-3	-5	4
gsp antag	-4%	9%	0%	5%	-6%	0%
gsp ag	9%[15.4 µM]	20%	-74%[inhibitor]	-34%[inhibitor]	14%[15.4 µM]	-10%
Sfp PPTase inh	13%	13%	0%	u	15%	-9%

# The results go on.
9. Cc1cc(NC(=O)CCC(=O)N(c2ccc(F)cc2)C(C(=O)NC2CCCC2)c2ccc(C)o2)no1 (centres undefined)
10. CCN(CCCNC(=O)CCc1nc(-c2ccc(C)cc2)no1)c1cccc(C)c1
11. S=C(NCCc1ccccc1)Nc1c(Cl)cccc1Cl
12. N#Cc1c(NC(=O)c2cc(C3CC3)on2)sc2c1CCC2
13. CCOC(=O)c1cc(C#N)c(N2CCCCC2)nc1-c1ccccc1
14. CCOc1nc(N2CCCCC2)nc(-n2cc(-c3ccccc3)nn2)n1
15. O=C(C1CCCCC1)N1CCN(c2ccccc2F)CC1
16. COc1ccc(N(CC(=O)NC2CCCCC2)C(=O)CCC(=O)Nc2nc(C)cs2)cc1OC
Assay by compound	9	10	11	12	13	14	15	16
Menin MLL FP FL	2.7	-1.5	1.0	7.3	x	-0.7	-2.5	-0.3
ClpP mod	-2.3%	-1.5%	x	-3.5%	28µM*	2.2%	1.6%	x
TRPML1 blocker	19	-4	-10	4	-10	31	33	-1
TRPV1 PAM	-12	-11	23	x	x	16	-2	11
gsp antag	-6%	u	-2%	6%	-8%	-9%	4%	-14%
gsp ag	-2%	2%	12%	u	-21%	-25%	-7%	-24%
Sfp PPTase inh	14%	13%	32µM*	u	x	-12%	14%	14%

17. Cc1ccc(Nc2c(-c3ccc(C)o3)nc3ncccn23)cc1
18. CC(=O)N1CCc2cc(S(=O)(=O)NCC(=O)NCc3ccccc3Cl)ccc21
19. CCOC(=O)C1=C(COC(=O)CCc2ccccc2)NC(=O)NC1C (centres undefined)
20. Cc1ccc2c(CN3CCCCC3)cc(=O)oc2c1C
21. O=C(CNS(=O)(=O)c1ccccc1F)NNC(=O)c1ccc(Br)cc1
22. COc1cc(S(=O)(=O)Nc2cccnc2)ccc1F
23. c1ccc2c3c([nH]c2c1)CCNC3
24. Cc1ccc(CCNC(=O)C2CCCN(S(C)(=O)=O)C2)cc1 (centres undefined)
Assay by compound	17	18	19	20	21	22	23	24
Menin MLL FP FL	7.8	x	x	-1.2	x	4.5	-2.8	4.4
ClpP mod	x	1.4%	-0.5%	-0.6%	-2.5%	-0.9%	x	62%
TRPML1 blocker	11	-9	5	x	7	-6	-21	2
TRPV1 PAM	-12	1	4	-25	u	7	0	-4
gsp antag	0%	7%	1%	-6%	1%	3%	10%	16%
gsp ag	-31%[inhibitor][15.4 µM]	3%	0%	-10%	18%	9%	2%	2%[15.4 µM]
Sfp PPTase inh	11µM*	21%	x	0%	x	2%	2%	-4%

25. CC(C)c1ccc(N)c(S(=O)(=O)O)c1
26. COc1ccc(Cn2c(CCC(=O)Nc3ccccc3OC)nc3cccnc32)cc1
27. Cc1ccc(N2CC(O)(c3cccs3)[N+]3=C2CCCC3)cc1 (centres undefined)
28. Cc1cc(NC(=O)c2cnn3c(C(F)F)cc(-c4ccccc4)nc23)no1
29. Cc1cccc(NC(=O)C2C3C=CC(O3)C2C(=O)O)c1 (centres undefined)
30. COCCNC(=O)c1onc(CS(=O)(=O)c2cc(C)cc(C)c2)c1C(=O)NCCOC
31. O=C(O)c1cc(NCc2c(F)cccc2Cl)ccc1N1CCOCC1
32. COc1ccccc1NC(=S)NC(=O)CCc1ccccc1
Assay by compound	25	26	27	28	29	30	31	32
Menin MLL FP FL	-0.2	-1.7	2.4	-2.0	0.9	x	-4.9	x
ClpP mod	u	-2.2%	x	-4.9%	x	1.8%	-6.8%	1.3%
TRPML1 blocker	x	5&-12	10	19	x	-1	54	-9
TRPV1 PAM	0	-11	7	-11	-10	u	15	26
gsp antag	10%	-12%	4%	-14%	x	-1%	4%	-12%
gsp ag	-4%	3%[15.4 µM]	6%[15.4 µM]	8%	x	-9%	-4%	3%[15.4 µM]
Sfp PPTase inh	15%	7%	19%	-4%	3%	x	-4%	3%

33. Cc1cc(C)nc(NC(N)=NCCc2ccccc2)n1
34. CCC(C)N(C)Cc1cccc(C2(O)CCN(S(=O)(=O)c3ccc(F)c(C)c3)CC2)c1 (centres undefined)
35. O=C(NCCNC(=O)c1cc(OCC(F)(F)F)ccc1OCC(F)(F)F)Nc1ccc(Cl)cc1
36. COc1ccc(NS(=O)(=O)c2cn(C)c(=O)n(C)c2=O)cc1
37. O=C(CCc1nnc(CCCCc2ccccc2)o1)NCCN1CCOC1=O
38. CCCCNC(=O)CCC(=O)Nc1ccc2nc(N3CCOCC3)cc(C)c2c1
39. O=C(NC1CCCCC1)c1cc(-c2ccco2)on1
40. Cc1nc2sc(C(c3ccco3)N3CCC(C)CC3)c(O)n2n1 (centres undefined)
Assay by compound	33	34	35	36	37	38	39	40
Menin MLL FP FL	x	1.7	2.0	1.7	-4.3	-1.0	7.3	u
ClpP mod	x	-4.2%	-3.9%	-0.4%	0.3%	15%	-2.2%	-0.9%
TRPML1 blocker	5	-4	-7	6	7	0	-12	-8
TRPV1 PAM	x	0	-27	-1	-10	2	-8	-2
gsp antag	9%	9%	11%	15%	7%	-9%	9%	-21%
gsp ag	-8%	-16%[15.4 µM]	19%	u	7%[15.4 µM]	0%	-16%	-6%
Sfp PPTase inh	x	13%	-3%	20%	-17%	7%	8%	16µM*

41. Cc1c(C(=O)O)oc2ccc(S(=O)(=O)NCc3ccccc3)cc12
42. COCCCN1C(=O)N(c2ccc(F)cc2)C(=O)C1CC(=O)Nc1ccc(OC)cc1 (centres undefined)
43. Cc1ccc(C(=O)N2CCCCCC2)cc1S(=O)(=O)N1CCOCC1
44. COc1ccc(C(=O)NCCSc2ccccn2)cc1
45. CCOC(=O)c1oc2ccccc2c1CN1CC(C)OC(C)C1 (centres undefined)
46. Cn1c(=O)n(Cc2ccccc2Cl)c2ccccc21
47. Cc1ccccc1-c1nc(CS(=O)(=O)CC(=O)N2CCCCC2)c(C)o1
48. COC(=O)CNC(=O)CNC(=O)Nc1ccccc1Cl
Assay by compound	41	42	43	44	45	46	47	48
Menin MLL FP FL	0.7	1.2	-0.3	4.4	x	-6.7	3.9	3.4
ClpP mod	0.4%	-0.7%	-2.2%	-0.3%	-0.2%	x	-4.8%	1.2%
TRPML1 blocker	-8	-1	17	-2	10	-18	9	15
TRPV1 PAM	4	3	11	-29	0	3	-6	-2
gsp antag	13%	3%	2%	1%	-24%	-1%	5%	-8%
gsp ag	9%	-5%	-37%[inhibitor]	-21%	15%[15.4 µM]	-13%[15.4 µM]	0%	-37%[inhibitor]
Sfp PPTase inh	-10%	18%	9%	14%	15%	u	8%	17%

49. CCOC(=O)CC1=C(C(=O)OCC)C(c2cc(OC)c(OC)cc2OC)C(C#N)=C(N)O1 (centres undefined)
50. O=C(O)CCc1ccc(-c2ccccc2)n1CC(=O)Nc1cccc(C(F)(F)F)c1
51. N#Cc1ccc(-c2cn(-c3ccccc3)c3[n+]2CCCS3)cc1
52. CC(C)NC(=O)COC(=O)c1cc(=O)[nH]c2ccccc12
53. NC(=O)C1CCCN(C(=O)c2ccc(S(=O)(=O)N3CCCCCC3)cc2)C1 (centres undefined)
Assay by compound	49	50	51	52	53
Menin MLL FP FL	7.2	0.9	-5.5	5.5	x
ClpP mod	-3.0%	-4.4%	x	-23%	-0.2%
TRPML1 blocker	-26	-5	12	0	-2
TRPV1 PAM	-4	2	2	15	3
gsp antag	2%	-5%	11%	16%	4%
gsp ag	-32%[inhibitor]	8%	0%[15.4 µM]	5%	-31%[inhibitor]
Sfp PPTase inh	24%	4%	14%	8%	x
